2A StopGo = lowers the luciferase signal of an FMDV 2A StopGo reporter | human cells with a luciferase reporter of 2A StopGo recoding; control for the full effect not named in the record | Potency, µM (series often up to 57.9 µM), for the others: at the top dose signal change, negative = less light | 1.2% of 410,000 active | AID 1159524; active = well fitted falling curve with a large enough effect; inconclusive = small, poorly fitted or top-dose-only effect; inactive = no such curve, though single readings can be large or run the other way; tested in HEK293T cells; further: on the % scale 0 is the no-effect control and ±100 the full control effect; nearly all actives have a fitted effect of over 45% in size; luciferase light after 4 h
Cruzain inh Det = blocks cruzain activity in presence of Triton detergent; P25779; purified cruzain, Z-FR-AMC fluorescence, 0.01% Triton; Potency, µM, for inactives: max response, negative = inhibition, actives largely listed as inhibitors; 0.43% of 200,000 active;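 further: plate controls were neutral wells for no effect and buffer without enzyme for full effect; nearly all actives have a fitted effect of over 40% in size; top concentration of the series not given in the record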
Target sequence (P25779 123-467 limits assumed): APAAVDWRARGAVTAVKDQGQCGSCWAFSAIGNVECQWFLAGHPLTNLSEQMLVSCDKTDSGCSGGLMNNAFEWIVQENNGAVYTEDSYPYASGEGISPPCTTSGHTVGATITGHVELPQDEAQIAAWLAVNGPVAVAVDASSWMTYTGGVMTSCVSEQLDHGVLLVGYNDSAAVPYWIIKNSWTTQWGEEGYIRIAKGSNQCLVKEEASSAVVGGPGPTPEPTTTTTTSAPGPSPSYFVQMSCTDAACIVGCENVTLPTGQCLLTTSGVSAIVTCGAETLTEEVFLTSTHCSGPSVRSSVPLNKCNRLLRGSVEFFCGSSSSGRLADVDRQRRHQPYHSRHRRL
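Detergent-containing run (0.01% Triton X-100) in acetate buffer pH 5.5 with 5 mM DTT: enzyme at 1.5 nM final, 15 min compound preincubation at room temperature, then 2 uM Z-FR-AMC substrate. Activity taken as 60 s fluorescence increase at 360/450 nm.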
NS1 inh = blocks influenza NS1 protein function. 0.4% of 270,000 active. S. cerevisiae slowed by influenza A NS1, growth recovery by OD600. AID 2326. Potency, µM (doses to about 46.1 µM), inactives show at the highest dose activity, positive = more growth; active means well fitted rising curve with a large enough effect; inconclusive means small, poorly fitted or top-dose-only effect; inactive means no such curve, though single readings can be large or run the other way; further: nearly all actives have a fitted effect of over 50% in size
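Compounds were scored for reversing the slow growth caused by influenza A NS1 in S. cerevisiae, measured by optical density at 600 nm. Assay medium contained 2% galactose at pH 6.0; NS1-free yeast of the same strain were the positive control.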
Cruzain inh noDet = cruzain (T. cruzi) inhibition without detergent. P25779. purified cruzain, Z-FR-AMC fluorescence, no detergent. Potency, µM, for the others: max response, negative = inhibition, most hits filed as inhibitors. 2.3% of 200,000 active. AID 1476;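 further: plate controls were enzyme without inhibitor for no effect and buffer without enzyme for full effect; nearly all actives have a fitted effect of over 40% in size; top concentration of the series not given in the record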
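Purified cruzain at 1.5 nM, pre-incubated 15 min with compound at room temperature in 100 mM sodium acetate pH 5.5, 5 mM DTT, 0.00005% Triton X-100. Reaction started with 2 uM Z-FR-AMC; AMC fluorescence increase over 60 s gives rate.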
Marburg entry inh = Marburg virus entry inhibition; AID 540276; 1.8% of 300,000 active; Potency, µM (titrated, usually from 37.8 µM), for the others: top-dose activity change, negative = inhibition, hits mostly inhibitors; Marburg virus pseudotyped entry inhibition, cell reporter; control for the full effect not named in the record; about a third of the inactives were read at about 46 µM; active = well fitted inhibition curve with a large enough effect; inconclusive = small, poorly fitted or top-dose-only effect, or effect the other way; inactive = flat fitted curve, though single readings scatter; tested in HEK293 cells; about a fifth of its hits are not listed in these tables; further: on the % scale 0 is the no-effect control and ±100 the full control effect; luciferase read-out
LASV entry inh = Lassa virus entry inhibition | Potency, µM (doses to about 37.9 µM), for inactives: at the top dose activity change, negative = inhibition, actives largely listed as inhibitors | Lassa virus pseudotype entry inhibition, cell reporter; control for the full effect not named in the record | 1.2% of 300,000 active; active means well fitted inhibition curve with a large enough effect; inconclusive means small, poorly fitted or top-dose-only effect, or effect the other way; inactive means flat fitted curve, though single readings scatter; tested in HEK293 cells; further: on the % scale 0 is the no-effect control and ±100 the full control effect; nearly all actives have a fitted effect of over 50% in size; luciferase read-out
SARS PLP yeast = inhibitors of SARS-CoV papain-like protease in yeast. S. cerevisiae expressing SARS-CoV PLpro, growth rescue; control for the full effect not named in the record. Potency, µM (titrated, usually from 32.9 µM), for inactives: top-dose activity, positive = growth rescue. 0.19% of 330,000 active. AID 485353; active means well fitted rising curve with a large enough effect; inconclusive means small, poorly fitted or top-dose-only effect; inactive means no such curve, though single readings can be large or run the other way; further: 0% is about no effect; nearly all actives have a fitted effect of over 55% in size; growth read by luminescence after 48 h
RE007 growth inh = less growth of the S. pombe RE007 Vpr strain; S. pombe RE007 Vpr strain, BacTiter-Glo ATP luminescence, 24 h; control for the full effect not named in the record; Potency, µM (titrated, usually from 92.2 µM), for the others: top-dose activity change, negative = less growth; 0.21% of 360,000 active; active = well fitted falling curve with a large enough effect; inconclusive = small, poorly fitted or top-dose-only effect; inactive = no such curve, though single readings can be large or run the other way;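 further: on the % scale 0 is the no-effect control and ±100 the full control effect; nearly all actives have a fitted effect of over 50% in size; the assay follows cell death caused by Vpr and the record does not say whether a fall means rescue or toxicity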
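Fission yeast strain RE007, carrying one chromosomally integrated HIV-1 vpr copy, was seeded at OD 0.01 in PMG+AL medium with 23 nL pinned compound. After 24 h at 30 °C and 99% humidity, viability was read by BacTiter-Glo luminescence.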
The depositor's hits bear a star; ? = inconclusive; / = no result given; & = joins results of further samples; [ ] = another dose, or the depositor's remark. Unless noted, the call rests on the fitted dose curve; in most records, active means well fitted curve in the direction sought with a large enough effect; inconclusive means small, poorly fitted or top-dose-only effect, or another doubt; inactive means no such curve, though single readings can be large; an effect the other way counts as inactive or inconclusive. Potency means the concentration at half of the fitted maximal effect.

SMILES	2A StopGo	Cruzain inh Det	NS1 inh	Cruzain inh noDet	Marburg entry inh	LASV entry inh	SARS PLP yeast	RE007 growth inh
CC(C)(C)c1ccc(NC(=O)NCc2ccco2)cc1	/	-7.9%	-68.2%	0.6%	0.6%	?	-8.6%	-5.0%
COc1ccc(NC(=O)Cn2c(-c3ccccc3)cn(-c3ccc(C)cc3)c2=O)cc1	-9.4%	-4.3%	2.0%	0.1%	-29.2%	-17.8%	0.7%	6.7%
CCc1nnc(NC(=O)CSc2nnc(-c3ccccc3O)n2-c2ccc(C)cc2C)s1	-21.3%	-13.4%	-71.0%	0.6%	?	?	/	?
Cc1oc2c(cc(NS(=O)(=O)c3cccs3)c3ccccc32)c1C(=O)OC(C)C	-0.6%	-3.0%	27.8%	31.6µM*	-26.9%	-25.2%	12.5%	-1.3%
Cc1ccc(Oc2ncnc(N)c2[N+](=O)[O-])cc1C	-23.2%	/	-6.1%	/	/	/	-1.2%	-10.6%
COc1cc(CNC(=O)c2ccc3nc(Cc4ccccc4)oc3c2)cc(OC)c1OC	?	-3.3%	/	?	/	?	/	/
Cc1ccc(CCNC(=O)C2CCN(c3nnc(C)c4c(C)n(-c5ccccc5)nc34)CC2)cc1	-12.5%	-3.3%	/	5.2%	/	28.6%[46.1 µM]	/	/
COc1ccc(NC(=O)CSc2nnc(C3CCCCC3)n2N)cc1	5.2%	/	-3.5%	/	-5.3%[46.1 µM]	-3.1%	0.8%	14.3%
CC(C)(CC(=O)O)CC(=O)Nc1cc(C(F)(F)F)cc(C(F)(F)F)c1	-16.7%	/	4.3%	/	2.6%[46.1 µM]	-6.5%	0.0%	-8.2%
CC(=O)Nc1cccc(C(=O)N2CCN(S(=O)(=O)Cc3ccccc3)CC2)c1	-8.5%	/	/	/	-16.1%[46.1 µM]	5.3%[46.1 µM]	2.6%	-13.9%
Nc1cc(C(=O)OCC(=O)NCCNC(=O)COC(=O)c2ccc(Cl)c(N)c2)ccc1Cl	?	/	?	/	-0.4%[46.1 µM]	4.2%[46.1 µM]	1.8%	3.3%
Cc1ccc(NC(=O)c2cccc(N3CCCS3(=O)=O)c2)cc1C	36.2%[activator]	-2.0%	/	2.7%	/	15.6%[46.1 µM]	/	/
O=C(NC1CCCCC1)c1cc(-c2ccccc2Cl)on1	87.6%[activator]	/	-29.3%	/	-21.8%[46.1 µM]	-7.6%	0.7%	-15.5%
COc1ccccc1NC(=O)C1CC(C)OC1=O (stereo not given)	8.1%	/	/	/	11.3%[46.1 µM]	-11.3%[46.1 µM]	/	-2.1%
COc1ccccc1NS(=O)(=O)c1cc(C(=O)NCCC(C)C)ccc1F	3.4%	/	5.4%	/	?	?	0.3%	7.3%
CCCCOc1ccc(C(=O)Nc2sc3c(c2C(=O)OCC)CCCCC3)cc1	-4.9%	-2.7%	/	-8.5%	/	-25.1%[46.1 µM]	/	/
O=C(c1ccco1)N1CCN=C1SCc1ccccc1Cl	-12.5%	-0.9%	-162.5%	-9.2%	/	/	-33.6%	1.7%
CC1=C(C)CC(C(=O)NNC(=O)c2cccc(Cl)c2)C(C(=O)O)C1 (stereo not given)	-6.4%	0.9%	-1.0%	5.3%	4.7%	3.0%	-6.2%	-3.6%
O=C1/C(=C/c2ccco2)SC(=S)N1CC1CCCO1 (stereo not given)	39.8%[activator]	/	3.1%	/	0.0%[14.2 µM]	-0.8%	-1.4%	9.0%
O=C(NNC(=O)c1cc(Cl)ccc1O)c1cccc(S(=O)(=O)N2CCOCC2)c1	29.3%	/	/	/	-18.3%	-28.1%	?	-3.0%
Cc1[nH]nc2nc(SCC(=O)NCCC3=CCCCC3)n(-c3ccc(Br)cc3)c(=N)c12	-20.2%	/	15.2%	/	/	/	-3.9%	2.7%
O=C(CC(C(=O)O)P(=O)(c1ccccc1)c1ccccc1)c1ccccc1 (stereo not given)	-5.5%	/	-0.2%	/	3.1%[46.1 µM]	9.7%	0.4%	1.7%
COc1cc(C(=O)NCCCCc2ccccc2)cc(OC)c1OC	-28.9%	/	-6.9%	/	/	/	6.1%	9.5%
O=C(CCSCCc1ccccn1)Nc1cc(F)ccc1F	7.9%&-21.1%	-0.7%&0.9%	-4.3%	-7.4%&11.2%	?	-1.1%[46.1 µM]	18.2%	0.9%
O=c1[nH]c(=O)n(CC2CCCO2)c(O)c1/C=C1\C=Nc2ccccc21 (stereo not given)	-13.4%&-14.1%	-10.5%	1.1%&-1.1%	-11.2%	-9.7%[46.1 µM]	?	2.3%&12.6%	6.6%&-3.2%
C=CCn1c(SCC(=O)NCC2CCCO2)nc2scc(-c3ccc(OC)cc3)c2c1=O (stereo not given)	-13.1%	/	2.4%	/	?	-29.1%	0.5%	6.1%
CCOCCCNC(=S)N1CCN(Cc2ccco2)CC1	22.4%	/	/	/	?	-0.9%[46.1 µM]	-0.1%	-0.3%
COc1ccc(-n2c(C)cc(C(=O)Cn3nnc4ccccc4c3=O)c2C)cc1	9.5%	1.1%	-20.1%	-11.2%	-11.5%	4.3%	-5.5%	-19.5%
CC(=O)NCCc1cnc[nH]1	-20.2%	/	5.6%	/	/	/	4.3%	10.9%
CN(c1ccccc1)S(=O)(=O)c1cc(C(=O)Nc2nc3ccccc3[nH]2)ccc1Cl	-46.3%	-4.9%	18.2%	?	?	?	-0.1%	8.4%
Cc1ccc(OCc2cc(=O)n3c(-c4ccccc4)csc3n2)cc1	13.4%	-4.7%	/	6.0%	-3.0%[46.1 µM]	14.1%[46.1 µM]	/	/
CCCCOc1ccc(N(CC(=O)NC(C)(C)CC)C(=O)CCC(=O)Nc2ccccn2)cc1	-6.9%	/	-6.7%	/	8.91µM*	?	0.7%	-9.5%
CCC(C(=O)NC1CC(C)(C)NC(C)(C)C1)c1ccccc1 (stereo not given)	-7.4%	/	1.0%	/	/	/	-3.6%	14.3%
CCc1cc2c(NCc3ccccc3)nc(C)nc2s1	?	/	-60.1%	/	/	/	-4.4%	?
CCN(CC)S(=O)(=O)c1ccc(NC(=O)c2cccc3c2C(=O)N(CCOC)C3)cc1	10.3%	3.6%	-3.3%	-3.9%	3.2%&6.3%	7.7%	21.7%	/
O=C(O)c1c[nH]c2c(C(F)(F)F)cccc2c1=O	-14.4%	3.1%	1.4%	0.1%	?	16.5%	11.1%	1.7%
Cc1c(F)cccc1NS(=O)(=O)c1ccc2c(c1)c(=O)n(C)c(=O)n2C	-6.5%	/	/	/	?	?	0.5%	10.0%
CCSc1nc2sc3c(c2c(=O)n1-c1ccc(C)cc1)CCN(C)C3	5.8%	/	1.1%	/	/	/	0.7%	-6.0%
CCc1ccc(CNC(=O)C2CC(=O)N(C3CCCC3)C2)cc1 (stereo not given)	48.8%[activator]	/	?	/	/	/	13.9%	6.5%
COC(=O)c1c(-c2ccc(OC)cc2)oc2ccccc12	-7.2%	/	-31.9%	/	/	/	-3.6%	-8.6%
CC(OC(=O)c1ccc(NC(=O)CC#N)cc1)C(=O)NC(=O)NC1CCCCC1 (stereo not given)	0.0%	/	6.6%	/	-14.4%	-9.4%	0.3%	7.8%
ONC(=Nc1ccc(Cl)cc1)c1ccccc1Cl	-18.2%	0.9%	-1.6%	-0.6%	-8.5%	-14.1%	-2.3%	6.5%
CCn1cc([N+](=O)[O-])c(C(=O)Nc2c(C)nn(Cc3cccc(F)c3)c2C)n1	-25.4%	-0.4%	22.9%	-9.2%	2.1%	-1.9%	13.0%	9.8%
O=C(N/N=C/c1ccc([N+](=O)[O-])o1)c1ccc(NS(=O)(=O)c2cccs2)cc1	0.0%	/	4.7%	/	?	?	-1.6%	6.0%
CCCCN(C(=O)c1cccc(S(=O)(=O)N2CCN(C)CC2)c1)c1c(N)n(CCCC)c(=O)[nH]c1=O	-6.0%	/	/	/	1.6%	-1.7%	/	6.3%
CNC(=S)N/N=C(\C)c1cccc([N+](=O)[O-])c1	-4.3%	-8.9%	6.7%	-9.0%	4.1%	4.1%	12.6µM*	4.8%
Cc1cccc(C)c1NC(=O)CSc1nnc(Cn2nnc(-c3ccccc3)n2)n1-c1ccccc1	-7.7%	-12.1%	-52.7%	?	?	?	-13.0%	6.6%
CCCc1cc(=O)[nH]c2nnc(SCC(=O)Nc3cccc(C)c3)n12	-11.9%	-3.1%	/	0.6%	/	?	/	/
Cn1c(Cc2ccccc2)nnc1SCC(=O)Nc1ccc2c(c1)OCCO2	15.2%	0.4%	0.3%	4.6%	1.1%	6.5%	1.2%	4.1%
Cc1cc(C)n(CC(=O)NNC(=O)c2ccc(S(C)(=O)=O)cc2)n1	-0.8%	/	/	/	-0.2%[46.1 µM]	14.6%[46.1 µM]	5.2%	7.7%
Cc1ccc(CNC(=O)CSc2nc3ccsc3c(=O)n2-c2ccc(Br)cc2)cc1	?	1.5%	/	2.1%	/	0.7%[46.1 µM]	/	/
COc1ccccc1NC(=O)CN1CC(=O)Nc2ccccc21	4.7%	/	/	/	22.5%[46.1 µM]	-0.1%	-0.6%	-10.0%
O=C(/C=C/c1cccc(F)c1)NC1CCN(Cc2ccccc2)CC1	-15.7%	/	11.0%	/	-2.3%[46.1 µM]	5.3%	1.5%	-18.6%
CCC(C)N1CNc2c(c(=O)[nH]c(=S)n2-c2cccc(C)c2)C1 (stereo not given)	-9.2%	/	/	/	23.7%[46.1 µM]	-15.7%	4.8%	9.8%
CCOP(=O)(Cc1cc(C#N)oc1C)OCC	-19.0%	-5.0%	1.0%	-5.3%	-2.1%	5.3%	4.6%	-13.6%
Cc1c2cnn(CC(=O)NCCCN3CC(C)CC(C)C3)c(=O)c2c(C)n1Cc1ccccc1Cl (stereo not given)	-12.8%	/	-4.8%	/	?	?	3.1%	-11.9%
CCN(CC)S(=O)(=O)c1cc(NS(=O)(=O)c2c(Cl)cccc2Cl)ccc1C	21.4%	-8.1%	-31.1%	-2.2%	11.4%	?	13.9%	-4.1%

From PubChem
